Bioassay records: PubChem, several laboratories
Bfl-1 A1 inh: inhibitors of the anti-apoptotic protein A1, read as caspase activation | MEF A1-2A-BIM cells, Caspase-Glo 3/7 luminescence, 3 h; percent of clofoctol response, vehicle zero | caspase activation, % (no concentration beside the values) | 330,000 compounds, 0.066% hits | AID 2462;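 active = over half of replicate activation scores above 10%, or exactly half above 10 with the replicate mean above 10; inconclusive = replicate mean below 10 yet half the replicates above 10; inactive = over half of replicates below 10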;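 note: wells of about 30 µL received 50 nL stock; many hits fall short of the cut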
UCH37 inh: inhibitors of human deubiquitinating enzyme UCH37. purified proteasome/UCH37, Ub-AMC cleavage fluorescence. inhibition, % (no concentration beside the values). 330,000 compounds, 0.33% hits. AID 588478;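 active = mean of two replicates above 20%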;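 note: 0% = compound-free wells with enzyme and 100% = wells lacking proteasome; stock transfer was 100 nL into about 20 µL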
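Reagent: Ub-AMC substrate; assay system: Proteasome-associated human UCH37 deubiquitinase; controls: no-proteasome and no-compound wells; read-out: % inhibition of Ub-AMC cleavage fluorescence; timing: 30 min preincubation with enzyme, 25 min cleavage at room temperature; signal: AMC fluorescence from Ub-AMC cleavage, excitation 355 nm, emission 460 nm; buffer or medium: Tris-HCl pH 7.4 plus ovalbumin, ATP-MgCl2, DTT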
Beta cell apopt: blocks beta cell apoptosis; INS-1E cytokine-induced death, ATP luminescence, 48 h; percent of positive-control rescue, neutral wells zero; protection from apoptosis, % (concentration not given with the values); 300,000 compounds, 0.8% hits; AID 435005;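 active = all replicates at 75% or more, or half of them and the mean; inconclusive = half reach 75% but not the mean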;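 note: 0% = cytokine-treated negative control wells and 100% = positive control rescue; higher means more ATP so stronger rescue from cytokine killing; wells of about 40 µL received 100 nL stock; the first replicate is given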
MLL AF4-AF9 inh: MLL-AF4/AF9 protein interaction inhibition; AID 651704; AlphaScreen, biotin-AF4 peptide binding to FLAG-AF9; inhibition, % at 10 µM; 350,000 compounds, 0.47% hits;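 active = every replicate reaching a set inhibition limit, whatever the replicate mean, cut at about 25% in these data; inconclusive = mean inhibition reaches that limit but some replicates miss it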;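 note: 0% = plate neutral control median and 100% = total signal loss; the record names both 10 and 1 µM as test concentration; the first replicate is given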
Target sequence (P42568 whole entry, looked up): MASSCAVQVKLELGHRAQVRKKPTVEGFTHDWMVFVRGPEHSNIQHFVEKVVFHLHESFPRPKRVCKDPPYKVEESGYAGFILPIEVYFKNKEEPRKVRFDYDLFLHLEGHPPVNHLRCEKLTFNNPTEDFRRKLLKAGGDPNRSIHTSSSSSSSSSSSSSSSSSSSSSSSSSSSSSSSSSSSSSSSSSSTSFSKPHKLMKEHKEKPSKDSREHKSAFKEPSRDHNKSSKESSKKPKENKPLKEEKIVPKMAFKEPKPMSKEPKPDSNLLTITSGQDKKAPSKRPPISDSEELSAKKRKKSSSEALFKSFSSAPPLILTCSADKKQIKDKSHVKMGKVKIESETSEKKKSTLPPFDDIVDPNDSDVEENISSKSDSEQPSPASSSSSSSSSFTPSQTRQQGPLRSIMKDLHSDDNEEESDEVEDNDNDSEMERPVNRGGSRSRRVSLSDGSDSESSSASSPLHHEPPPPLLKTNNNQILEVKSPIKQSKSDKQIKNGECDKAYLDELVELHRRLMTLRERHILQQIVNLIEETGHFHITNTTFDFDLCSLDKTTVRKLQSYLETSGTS
FGF22 binding: shifts melting point of recombinant human FGF22; Q9HCT0; recombinant FGF22 thermal shift, SYPRO orange fluorescence; percent of sucrose octasulfate shift, DMSO zero; calls only at 9.99 µM; 340,000 compounds, 1.5% hits;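 active = melting point raised past a set limit in the mean and every replicate; inconclusive = no clear call; three in four hits are not shown here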
Target sequence (Q9HCT0 whole entry, looked up): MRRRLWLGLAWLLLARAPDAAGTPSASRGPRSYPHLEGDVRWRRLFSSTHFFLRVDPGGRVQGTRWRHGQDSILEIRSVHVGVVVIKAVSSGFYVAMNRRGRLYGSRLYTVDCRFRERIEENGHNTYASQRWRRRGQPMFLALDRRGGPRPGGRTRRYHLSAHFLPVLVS
T cruzi inh: blocks replication of Trypanosoma cruzi; T. cruzi beta-gal in NIH3T3, luminescence, 90 h; inhibition, % (no concentration beside the values); 300,000 compounds, 1.4% hits; AID 1885;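 active = mean inhibition across valid replicates above about 55%, limit read from the data; inconclusive = mean below that limit but half or more replicates reach it; inactive = mean below it, under half of replicates reach it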;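 note: signal also drops with host cell toxicity which is not excluded here; 0% = plate median of DMSO wells and 100% = zero luminescence signal; higher percent means less beta-gal luminescence so fewer parasites; stock transfer was 50 nL into about 50 µL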
Ecoli growth: E. coli growth inhibition. Escherichia coli growth, OD600, 23 h; hits give low values. OD600 absorbance (no concentration beside the values). 330,000 compounds, 0.21% hits. AID 1053175;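 active = OD600 absorbance below the run mean of sample wells minus 3.6 SD, in any replicate, cut at about 0.56 in these data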;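 note: stock transfer was 300 nL into about 60 µL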
Ecoli rRNA inh: selective bacterial rRNA inhibition in E. coli. AID 720706. GFP signal change (wild-type ribosome), % (concentration not given with the values). 350,000 compounds, 1.6% hits. E. coli WT GFP vs humanized-ribosome RFP mutants, fluorescence, 24 h; hits give low values; DMSO median 0, no signal -100;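 active = significant combined selectivity score with lowered wild-type GFP, culture density cut under 30%, mutant RFP and density less affected; inactive = any of these conditions unmet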; note: one replicate is shown; some compounds called inactive have numbers as strong as hits
Ecoli rRNA inh OD600: also measured in Ecoli rRNA inh; calls as there; OD600 change, %; measured here: OD600 growth;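 optical density of the mix in the first replicate; 0 = DMSO median and -100 = no signal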
Ecoli rRNA inh RFP: recorded beside Ecoli rRNA inh, whose call it bears; RFP signal change, %; measured here: RFP humanized mutant strains;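 first replicate; 0 = DMSO median and -100 = no signal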
The depositor's hits bear a star; i = inactive; u = inconclusive; x = not tested or not shown. The list is partial; count on the stated rates, not on these rows.

The line under a structure holds: Ecoli growth	MLL AF4-AF9 inh	UCH37 inh	Ecoli rRNA inh	Bfl-1 A1 inh	Ecoli rRNA inh OD600	FGF22 binding	T cruzi inh	Beta cell apopt	Ecoli rRNA inh RFP
CC(C)C[C@H](NC(=O)c1nc[nH]c1C(=O)N[C@@H](CC(C)C)C(=O)OCc1ccccc1)C(=O)OCc1ccccc1
→ x	-2.8	1.3	7	-0.4	7	i	4	0	-7.5
CCCc1nnc(NC(=O)CCC(=O)NC2CC2)s1
→ 0.68	-1.0	1.0	21	0.2	11	i	-9	-10	-0.2
Cc1ccc(Oc2ccc(NC(=O)c3ccco3)cc2)cc1
→ 0.64	x	2.5	x	0.3	x	x	-21	4	x
CCc1ccc(C2CC(c3ccccc3Cl)Nc3nc(N)nn32)cc1 (centres undefined)
→ 0.71	1.1	3.0	-28	0.1	-41	i	18	1	-5.9
N#C/C(=C\c1ccc(-c2ccc([N+](=O)[O-])cc2)o1)C(=O)Nc1nc(-c2cccs2)cs1
→ 0.73	6.5	10	-20	0.4	-4	i	0	1	37
CCOc1cc(N2CCOCC2)c(OCC)cc1NC(=O)CN1CCCC1
→ 0.69	x	2.8	x	-0.2	x	x	2	-5	x
CCC(Cc1ccccc1)NC(=O)CCc1ccccc1 (centres undefined)
→ 0.65	5.0	3.1	1	0.7	0	i	-2	-4	2.3
COc1ccc(C(=O)N/C(=C\c2ccc3c(c2)OCO3)C(=O)Nc2ccc(C(=O)O)cc2)cc1
→ 0.69	-1.3	8.9	-11	0.5	-9	i	-1	1	-4.8
Cc1c(CCO)c(=O)[nH]n1S(=O)(=O)c1ccccc1
→ 0.71	-1.5	-0.2	26	1.4	20	x	-6	x	2.2
CCOC(=O)c1c(NC(=S)Nc2ccccc2)sc(C)c1C
→ 0.71	0.4	-3.8	-7	0.8	-7	i	4	-4	18
Cc1ccc(-c2csc(NC(=O)CSc3nc(C)cs3)n2)cc1
→ 0.66	x	2.0	-33	u	-52	x	-3	-2	1.4
O=C(CCn1c(=O)[nH]c2ccsc2c1=O)N1CCN(Cc2ccc3c(c2)OCO3)CC1
→ 0.66	x	5.1	x	0.4	x	x	8	-1	x
Cc1ccc(C(=O)C(C)OC(=O)C2=COCCO2)cc1C (centres undefined)
→ 0.66	x	1.3	x	0.0	x	x	-7	15	x
CC[C@H](C)NC(=O)c1ccc(Cn2c(=S)[nH]c3c([nH]c4ccc(OC)cc43)c2=O)cc1
→ x	-4.1	x	12	2.2	1	i	4	-6	2.5
O=C(CCCSc1nc2ccccc2s1)NCc1ccco1
→ 0.68	x	-2.2	x	0.2	x	x	x	-3	x
COc1cccc(OCC(=O)N2CCC3(CC2)CC(=O)c2ccccc2O3)c1
→ 0.68	-0.6	-32	-5	-0.6	-8	i	5	2	2.2
COc1ccc(C(=O)COC(=O)c2ccccc2O)c(OC)c1
→ 0.66	-1.6	1.8	-18*	-4.4	0.3*	i	x	-4	-5.8*
Cc1scc(C(=O)Nn2cnnc2)c1-c1ccccc1
→ 0.69	4.9	3.9	17	-0.3	7	i	0	-3	-0.9
COc1cc(C2C(C(=O)c3ccc(C)o3)=C(O)C(=O)N2c2cc(C)on2)cc(Br)c1O (centres undefined)
→ 0.76	x	-0.7	7	-0.3	-6	x	-1	-7	4.9
O=C(NCc1ccccn1)c1cccc([N+](=O)[O-])c1
→ 0.64	1.9	1.8	11	1.1	14	i	3	-8	-5.7
Oc1ccc(CN2CCc3ccccc3C2)c2cccnc12
→ 0.47*	x	2.1	x	1.3	x	x	57*	112*	x
Nc1ccccc1/C=C/c1ccccc1N
→ 0.62	-0.1	i	7	x	2	i	x	x	2.8
CCc1cc2cc(C)cc(C)c2nc1SCC(=O)Nc1cc(C)on1
→ 0.69	0.2	3.4	12	1.0	22	i	-6	6	3.5
Cn1nc(C(=O)NC2CCCCC2)c2ccccc2c1=O
→ 0.65	x	1.7	x	-0.1	x	x	-7	10	x
COc1ccc(/C=C/C(=O)N2CCN(c3ccccn3)CC2)c2ccccc12
→ 0.69	-3.0	-0.2	-35	0.7	-35	i	3	-5	-2.0
COC(=O)c1c(NC(=O)CN2C(=O)C(=O)N(C(C)C)C2=O)sc(C)c1C
→ 0.68	-1.1	2.8	-3	0.3	-6	i	x	-3	-3.5
CCOC(=O)N1CCc2c(sc(NC(C)=O)c2C(N)=O)C1
→ x	-4.8	x	13	0.4	8	i	2	0	-1.7
Cc1sc2ncnc(SCC(=O)N3CCCC3)c2c1C
→ 0.72	x	5.0	x	0.7	x	x	-3	-2	x
Cc1ccc(NC(=O)CSc2ccccc2)cc1S(=O)(=O)N1CCOCC1
→ 0.66	-8.4	-2.9	-14	x	-15	i	x	x	1.8
Cc1c(NC(=O)Nc2ccc(C(C)C)cc2)c(=O)n(-c2ccccc2)n1C
→ 0.7	-1.4	4.2	1	-0.1	13	i	-3	-3	1.4
O=C(Nc1ccc2[nH]c3c(c2c1)CCCC3)c1ccco1
→ 0.77	x	-1.3	x	-0.2	x	x	-7	-1	x
OC(CC#CCN1CCCCC1)(c1ccccc1)c1ccccc1
→ 0.6	-1.4	1.7	-2	0.0	1	i	6	3	-1.4
O=C(COC(=O)CNC(=O)c1ccccc1)Nc1ccccc1Cl
→ 0.68	0.6	0.8	6	-0.5	5	i	4	-4	-0.3
C=CCn1c(SCC(=O)OCC)nc(C(F)(F)F)cc1=O
→ 0.71	0.0	1.9	5	2.2	11	i	-10	3	-0.7
Cn1cc(-c2nnnn2-c2ccccc2)c(=O)c2ccccc21
→ 0.7	x	4.6	x	0.2	x	x	-5	-1	x
CC(=O)OC1[C@H](Oc2c(O)c(C)c3c4c2[C@@H](C)CC[C@@H]4[C@@H](C)C[C@@H]3C=C(C)C)OC[C@@H](O)[C@@H]1O (some centres undefined)
→ x	3.4	0.7	8	1.0	2	i	x	-14	-1.6
C=CCn1c(CNC(=O)c2ccco2)nnc1SCC(=O)c1ccccc1
→ 0.7	-1.1	3.5	14	1.2	8	i	-9	-3	4.6
Cc1ccc(-c2nc(=S)c3c(n2Cc2cccnc2)CC(C)(C)OC3)cc1
→ 0.68	-4.7	5.1	17	-0.8	1	i	-13	0	2.8
Cc1ccccc1NC(=O)Cn1nc(C(=O)O)c2ccccc2c1=O
→ 0.72	-0.5	0.2	3	0.3	11	i	-7	-3	1.1
COc1ccc(C(C(=O)NC(C)(C)C)N(Cc2ccco2)C(=O)CCC(=O)Nc2cc(C)on2)cc1 (centres undefined)
→ 0.67	x	2.7	x	-0.5	x	x	-3	1	x
CC(C(=O)NCCN1C(=O)S/C(=C\c2cccnc2)C1=O)N1C(=O)c2ccccc2C1=O (centres undefined)
→ x	0.7	7.0	9	1.3	15	i	-17	-2	3.7
CSc1ccccc1C(=O)C1CCCN(Cc2c(C)n(C)n(-c3ccccc3)c2=O)C1 (centres undefined)
→ 0.66	2.6	-0.8	17	0.4	4	i	6	-3	1.7
COc1ccccc1NC1=NC(c2ccc(Cl)cc2)N=C(N)N1 (centres undefined)
→ 0.72	x	5.0	x	-2.5	x	x	17	4	x
Cc1ccc(NC(=O)c2ccc(NS(=O)(=O)c3ccc4[nH]c(=O)[nH]c4c3)cc2)nc1
→ 0.69	-0.8	0.8	-1	0.2	7	i	-2	-3	0.3
CCN(C(=O)CSc1n[nH]c(N)n1)C1CCCCC1
→ 0.72	-0.1	3.8	3	-0.6	-1	i	x	-11	0.8
CC(C)(C)C(=O)CSc1ncccn1
→ 0.69	1.0	2.0	13	0.6	18	x	-5	-1	-0.6
COC(=O)C(CC(C)C)Oc1ccc2c(C)cc(=O)oc2c1 (centres undefined)
→ 0.69	x	-12	x	0.2	x	x	5	-3	x
Cc1cc(N2CCN(C)CC2)nc2ccc(NC(=S)NCc3cccs3)cc12
→ 0.67	x	-3.6	-23*	0.2	-12*	i	41	7	-0.9*
CC(OC(=O)CC1CC2CCC1C2)C(=O)Nc1ccc(N2CCOCC2)cc1 (centres undefined)
→ 0.64	0.6	0.2	5	1.6	0	i	-4	2	-3.3
COC(=O)c1ccccc1C(=O)c1ccc2c(c1)NC(=O)CO2
→ x	0.4	x	5	0.1	0	i	-11	-3	-4.6
Cc1cc(C(=O)NNC(=O)CN2C(=O)NC3(CCCCC3)C2=O)c(C)o1
→ 0.67	-3.0	3.9	x	0.0	x	i	x	-2	x
CCC(C)(C)NC(=O)C(c1ccccc1Cl)N(Cc1cccnc1)C(=O)CCC(=O)Nc1cc(C)on1 (centres undefined)
→ 0.67	0.6	-1.2	0	0.4	-3	i	-6	-2	-0.4
CCC1=NN(C(=O)C(=O)Nc2ccc(OC)cc2)C(O)(C(F)(F)F)C1 (centres undefined)
→ 0.66	5.0	1.0	-23*	-0.7	-13*	i	-17	1	6.9*
CC(C)CC(=O)Nc1ccc(C(=O)CN2CCN(c3ccc(O)cc3)CC2)cc1
→ 0.7	-1.2	-0.2	1	0.0	10	x	-20	-6	1.7
CSc1ccccc1OCc1cc(C(=O)N2CCc3sccc3C2)no1
→ 0.72	-2.8	4.4	-1	-0.9	-19	i	7	-6	-3.2
Cc1ccc(S(=O)(=O)N(Cc2cc3ccc(C)cc3[nH]c2=O)c2ccccc2)cc1
→ 0.72	6.8	1.8	-7	0.2	0	i	16	0	-0.8
